High-throughput results as filed in PubChem BioAssay.
Menin MLL FP FL: inhibitors of human menin-MLL interaction, wild-type MLL peptide; Fluorescence polarization, fluorescein-MLL peptide displacement from menin; FP activity change, % at 61.4 µM; 290,000 tested, under 10 active; AID 1766; inconclusive = falling polarisation curve, or a change in total fluorescence; inactive = total fluorescence flat and polarisation flat or rising; no compound was filed as active; the % refers to the polarisation; negative = inhibition;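 further: % of control where 0% means no effect; inhibitors lower the polarisation; unlabelled MLL peptide was the positive control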
TRPML1 blocker: human mucolipin-1 channel inhibition | TRPML1-inducible cells, Ca2+ dye fluorescence, FDSS; stronger effect = lower value; inhibition of EC80 agonist-evoked calcium signal | activity change, negative = inhibition, % (no concentration beside the values) | hit rate 0.02% among 390,000; in the data active means activity change below about -50%; inconclusive means about -30% to -50%; inactive means above about -30%;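 further: stimulus is agonist 54-4 at its EC80 concentration; on the % scale 0 is the no-effect control and ±100 the full control effect; compound concentration not given in the record; the text of the record puts the active cut at -80%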
Target sequence (Q9GZU1 whole entry, looked up): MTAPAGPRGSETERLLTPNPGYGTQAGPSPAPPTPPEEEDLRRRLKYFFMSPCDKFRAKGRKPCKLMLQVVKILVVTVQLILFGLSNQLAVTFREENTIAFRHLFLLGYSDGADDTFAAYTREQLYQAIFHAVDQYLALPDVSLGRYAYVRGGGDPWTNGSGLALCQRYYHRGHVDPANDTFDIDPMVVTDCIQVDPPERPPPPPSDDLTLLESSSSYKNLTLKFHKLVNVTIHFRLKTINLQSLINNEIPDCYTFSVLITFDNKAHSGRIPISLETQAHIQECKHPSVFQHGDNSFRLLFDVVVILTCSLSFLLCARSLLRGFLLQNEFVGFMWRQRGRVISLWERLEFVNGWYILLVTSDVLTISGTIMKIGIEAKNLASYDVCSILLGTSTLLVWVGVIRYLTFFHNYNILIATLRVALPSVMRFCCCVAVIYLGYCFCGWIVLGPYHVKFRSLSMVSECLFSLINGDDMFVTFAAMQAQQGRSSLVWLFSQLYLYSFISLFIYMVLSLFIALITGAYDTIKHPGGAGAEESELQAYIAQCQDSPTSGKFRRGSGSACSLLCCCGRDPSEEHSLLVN
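Calcium fluorescence in TRPML1-DL cells induced overnight with Tet: a 110 s read after compound pin addition, then a 110 s antagonist read after challenge with 54-4 at 4 uM final (EC80).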
ClpP mod: qHTS Assay for Activators of ClpP. hit rate 1.9% among 340,000. purified B. subtilis ClpP, FRET peptide cleavage, 20 min. ATP-dependent Clp protease proteolytic subunit (Bacillus subtilis (strain 168)), P80244. Potency, µM (doses to about 57.5 µM), without a hit: at the highest dose activity change, negative = active; active = well fitted falling curve with a large enough effect; inconclusive = small, poorly fitted or top-dose-only effect; inactive = no such curve, though single readings can be large or run the other way; further: potency means the concentration at half of the fitted maximal effect; the source files actives as falling curves though it sought activators and does not explain the sign; nearly all actives have a fitted effect of over 65% in size; many hits overshoot -100%
Target sequence (P80244 whole entry, looked up): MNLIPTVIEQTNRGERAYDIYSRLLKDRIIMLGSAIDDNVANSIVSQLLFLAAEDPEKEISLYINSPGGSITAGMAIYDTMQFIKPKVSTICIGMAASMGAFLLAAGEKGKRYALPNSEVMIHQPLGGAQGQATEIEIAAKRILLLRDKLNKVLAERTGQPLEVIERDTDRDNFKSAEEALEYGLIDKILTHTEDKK
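ClpP 10 microg/mL final, pH 8 Tris/KCl buffer with BSA, glycerol, Tween-20; compound pinned in; FRET-FV substrate; RT 20 min; Ex320/Em430; ΔFRET vs ADEP 5.8 microM, DMSO, no enzyme.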
gsp ag: activates gsp, the McCune-Albright syndrome mutation. gsp mutant cells, cAMP HTRF, 30 min; control for the full effect not named in the record. Potency, µM (titrated, usually from 76.9 µM), without a hit: at the highest dose activation (cAMP increase), hits mostly activators. hit rate 0.13% among 340,000. AID 624287; active = well fitted activation curve with a large enough effect; inconclusive = small, poorly fitted or top-dose-only effect, or another doubt; inactive = no such curve, though single readings can be large or run the other way; cell line not stated here;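 further: phosphodiesterase inhibitor Ro 20-1724 added with compounds to block cAMP breakdown; potency means the concentration at half of the fitted maximal effect; nearly all actives have a fitted effect of over 60% in size; about a fifth of the inactives were tested at one dose only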
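Cells stably selected in G418 were plated at 2000/well, grown 16-24 hr, then given compounds in DMSO with the PDE inhibitor […] (300 uM solution added) for 30 min at 37C; cAMP was read by HTRF.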
TRPML1 ag: agonists of human TRPML1 channel. hit rate 0.12% among 410,000. TRPML1-expressing cells, Ca2+ dye fluorescence, FDSS; host cell line not named in the record; reference of the full effect not given here. activation, % (concentration not given with the values). Q9GZU1. AID 624414; in the data active = activation above about 50%; inconclusive = about 30% to 50%; inactive = below about 30%; further: 0% is about no effect; the text of the record puts the active cut at 80%
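Tetracycline-induced TRPML1-DL cells are seeded and incubated overnight before loading with a no-wash Ca2+ dye and quencher. Agonist activity is taken from the 110 s fluorescence read following compound pin-transfer on an FDSS, before EC80 54-4 challenge.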
gsp antagonist: gsp mutant antagonism | gsp-mutant cells, cAMP HTRF, 30 min; control for the full effect not named in the record | Potency, µM (titrated, usually from 76.9 µM), for the others: at the top dose activity change, negative = inhibition, hits mostly inhibitors | hit rate 0.4% among 340,000; active = falling curve of any shape with a large fitted effect; inconclusive = falling curve, mostly with a smaller effect; inactive = flat or rising curve; cell line not stated here;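 further: intracellular cAMP measured with PDE inhibitor Ro 20-1724 present during compound exposure; potency means the concentration at half of the fitted maximal effect; on the % scale 0 is the no-effect control and ±100 the full control effect; nearly all actives have a fitted effect of over 65% in size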
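Measurement of cellular cAMP by homogeneous time-resolved fluorescence following a 30 min compound exposure at 37C. The PDE inhibitor […] was present throughout; the assay buffer was DPBS with 0.05% BSA and 0.005% Tween 20.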
* hit, by the source's call; ? = inconclusive; . = not tested or not shown; & = joins results of further samples; [ ] = dose if it differs, or a comment.

mol | TRPML1 ag | ClpP mod | gsp ag | gsp antagonist | TRPML1 blocker | Menin MLL FP FL
COc1ccccc1N(C)S(=O)(=O)c1ccc(C(=O)NCC(c2ccco2)N2CCCCC2)cc1 (stereo unspecified) | -1.1 | -1.0% | -36.0% | -0.8% | 19.8 | .
CCN(CC)CCCNc1sc(S(=O)(=O)c2ccccc2)nc1S(=O)(=O)c1ccc(Cl)cc1 | 2.2 | -3.6% | . | . | 12.8 | .
COc1cccc2sc(NN)nc12 | 0.8 | . | -2.0%[15.4 µM] | -14.2% | 29.0 | 1.7
O=C(c1ccc2c(c1)N(Cc1ccc(F)cc1)C(=O)c1ccccc1S2(=O)=O)N1CCC(Cc2ccccc2)CC1 | -0.6 | -0.1% | . | . | 10.1 | .
O=C(c1ccccc1F)N1CCN(Cc2cccc(Cl)c2)CC1 | -0.1 | -2.7% | ? | -4.8% | 2.4 | -1.6
Cc1ccc([N+](=O)[O-])cc1NC(=O)CN(c1ccccc1)S(=O)(=O)N(C)C | 0.8 | -1.0% | . | . | 44.1 | .
O=C(Nc1nc2c(Cl)ccc(Cl)c2s1)C1CC1 | 0.0 | -0.9% | -1.3% | 4.1% | 3.2 | -0.7
S=c1[nH]nc(COc2ccccc2)n1/N=C/C=C/c1ccco1 | 0.8 | . | -1.9%[15.4 µM] | -8.1% | 0.4 | ?
CN(C)c1ccc(C(CNS(=O)(=O)c2cccc([N+](=O)[O-])c2)N2CCOCC2)cc1 (stereo unspecified) | -0.7 | . | -21.5%[15.4 µM] | 0.9% | -7.6 | .
Oc1ccc(/C=N/NC(=S)NC2CC3CCC2C3)cc1 (stereo unspecified) | 1.2 | . | 10.3% | -9.6% | 14.2 | 5.2
CC(=O)N1CCOc2ccc(S(=O)(=O)N3CCN(c4cc(C)ccc4C)CC3)cc21 | 3.7 | -1.1% | 38.0% | ? | 32.8 | 4.3
CCn1c(CC(=O)Nc2ccccc2C)nnc1SCC(=O)Nc1nncs1 | 0.6 | . | 0.1% | 3.6% | 12.2 | -3.8
OCCCN1CCN(CCCOc2ccccc2-c2ccccc2)CC1 | -1.3 | 0.6% | -5.7% | -5.6% | 12.7 | ?
O=S(=O)(Nc1cc(C(F)(F)F)ccc1N1CCOCC1)c1ccccc1 | 0.4 | 3.6% | -14.2% | 5.3% | 10.1 | -0.6
c1ccc(OCc2nnnn2-c2ccccc2)cc1 | 0.2 | -0.9% | 14.8% | 4.2% | -2.3 | -1.9
O=C(NC1CCc2ccccc21)c1cc(COc2ccc(F)cc2Cl)on1 (stereo unspecified) | -0.4 | 0.1% | 2.5% | 5.8% | -7.5 | 9.6
O=C(c1ccc(F)cc1)N(Cc1ccccc1)C1CCS(=O)(=O)C1 (stereo unspecified) | -0.5 | -2.0% | 7.3% | 0.0% | -13.8 | 0.4
O=C1CCCC2=C1C(c1ccco1)Nc1ccc3ccccc3c12 (stereo unspecified) | 1.2 | 35.5µM* | -10.8% | -36.0% | -7.6 | 9.1
Cc1noc(C)c1C(=O)Nc1ccc(-c2nnc3n2CCCCC3)cc1 | 1.1 | 1.3% | ? | 3.9% | 5.1 | .
O=C(CN1CCN(c2ccccc2)CC1)NC(=O)NCc1ccccc1 | -0.3 | 0.4% | -65.1%[inhibitor] | 13.6% | 15.1 | .
COC(=O)c1ccc(C2C(C#N)=C(N)Oc3cc(C)n(C)c(=O)c32)cc1 (stereo unspecified) | -0.8 | -2.7% | 4.7% | -6.5% | 3.7 | 3.6
CCc1ccccc1N1CC(C(=O)N2Cc3ccccc3CC2C(N)=O)CC1=O (stereo unspecified) | -0.5 | 0.2% | 15.2% | 15.4% | -2.8 | .
COc1ccc(-c2cc(C(=O)Nc3ccccc3)on2)cc1 | -0.6 | 2.0% | 14.2% | 11.5% | -12.4 | -4.6
CCOC(=O)C1CCCCN1C(=O)c1oc2c(Cl)cc(C)cc2c1C (stereo unspecified) | 2.2 | 52.8% | -14.4%[15.4 µM] | ? | 11.8 | -0.8
Clc1cc(Sc2ccc(Br)cc2)nnc1-c1ccccc1 | -0.3 | -2.1% | 11.8% | -8.6% | -6.7 | -1.0
Cc1cc2nc(-c3ccccc3O)[nH]c2cc1C | 1.6 | . | ? | -14.0% | 4.8 | .
O=C(CN1C(=O)NC(Cc2c[nH]c3ccccc23)C1=O)Nc1ccccc1Br (stereo unspecified) | 0.4 | 0.1% | ? | 8.6% | -3.1 | .
O=C(NC(Cc1ccccc1)c1ccc2c(c1)OCCCO2)c1ccc(F)cc1 (stereo unspecified) | 0.8 | -1.8% | -3.4% | 7.3% | -8.7 | 12.8
CC(C)(C)NC(=S)NCCc1ccccc1 | 0.1 | -8.7% | -7.8% | -1.8% | -23.7 | 7.9
CCOC(=O)/C=c1\s/c(=C(\C#N)C(=O)NC)n(-c2ccccc2)c1=O | 1.0 | -3.4% | 18.9% | 12.7% | -0.4 | -0.7
O=C(CSc1nnc(-c2ccco2)n1Cc1ccccc1)c1ccc(F)cc1 | 2.7 | -3.2% | -50.1% | -13.1% | -7.6 | 4.2
CCOc1cc(-c2c(C#N)c(N)nc3c2CCc2ccccc2-3)ccc1O | 1.7 | -21.7% | 23.3% | -26.4% | -14.6 | 0.9
CCCN(C(=O)c1ccc(S(=O)(=O)N2CCCC2)cc1)C1CCS(=O)(=O)C1 (stereo unspecified) | 2.1 | -3.0% | 29.4% | -2.6% | -10.1 | .
COc1ccc(OCc2nnc(SCC(=O)N3c4ccccc4Sc4ccc(Cl)cc43)o2)cc1 | 1.3 | 0.4% | 24.1% | -11.5% | 3.0 | -4.8
COc1cccc(CC(NC(C)=O)C(=O)NC2CCN(S(=O)(=O)c3ccc4ccccc4c3)CC2)c1 (stereo unspecified) | -0.1 | 2.8% | 4.7% | -5.8% | 12.0 | 0.6
CCOC(=O)c1c(O)cc(C)[nH]c1=O | -0.3 | -2.9% | -6.7% | 8.8% | 15.7 | -1.4&-0.3
COc1ccc(C(=O)N(C)C2(C)CCS(=O)(=O)C2)cc1OC (stereo unspecified) | 0.6 | . | -5.3%[15.4 µM] | 10.9% | -11.9 | .
CC1Cc2ccccc2N1C(=O)CCn1cccn1 (stereo unspecified) | 0.2 | -2.9% | -41.4%[inhibitor] | 9.8% | -20.5 | -4.1
O=C(Nc1c(F)cc(F)cc1Br)c1cc(-c2ccccc2)on1 | -0.1 | 3.7% | -13.2% | -6.0% | -7.7 | -0.1
Cc1oc(-c2ccc(Cl)cc2)nc1CS(=O)CC(=O)NCc1cccs1 (stereo unspecified) | -0.4 | -26.6% | -0.4% | -0.3% | 0.0 | 4.1
C(=C\c1nc(-c2ccncc2)no1)/c1ccccc1 | 0.2 | . | 21.3% | -11.9% | -5.9 | 0.9
O=C1ON=C(c2ccccc2)/C1=C/c1ccc(O)cc1 | . | -0.3% | -41.5%[inhibitor] | ? | . | 6.1
CC(C)CN1CCNC(=O)C1CC(=O)NCc1cnn(-c2cccc(F)c2)c1 (stereo unspecified) | 0.2 | -10.0% | ? | 10.4% | -10.3 | 0.3
NS(=O)(=O)c1ccc(CCNC(=O)COC(=O)c2cc([N+](=O)[O-])ccc2N2CCOCC2)cc1 | -0.9 | . | 12.9%[15.4 µM] | 5.0% | 0.7 | .
C=CCN(CC=C)S(=O)(=O)c1ccc(F)cc1 | 1.1 | 0.2% | -37.3%[inhibitor] | -3.6% | -4.9 | -3.2
C/C(=N\NC(=O)COc1ccccc1-c1ccccc1)c1cccnc1 | 3.2 | . | -4.7%[15.4 µM] | -13.2% | -12.7 | -3.0
CCc1ccc(C2CC(=O)c3c([nH]c(C(=O)OC4CCC(C)CC4)c3C)C2)cc1 (stereo unspecified) | 0.0 | 1.7% | . | . | -9.1 | .
CCCc1nnc(NC(=O)CCS(=O)(=O)c2ccccc2)s1 | 0.2 | . | -15.7%[15.4 µM] | 7.4% | 39.0 | -3.4
CC(C)c1ccc(NC(=O)CN2CCN(C(=O)C3CCCO3)CC2)cc1 (stereo unspecified) | 0.3 | -4.3% | -37.0%[inhibitor] | 3.4% | -9.4 | .
COc1cccc(CN(C)C(=O)CNC(=O)c2cccs2)c1OC | -0.7 | 2.4% | -5.0% | 9.5% | 16.4 | .
O=C(COc1ccccc1)Nc1cccc(-c2ccc(N3CCOCC3)nn2)c1 | 0.4 | 5.0% | -1.7%[15.4 µM] | ? | 8.8 | .
Oc1ccc2ccccc2c1CNc1ccccc1 | 1.7 | . | 1.2% | -3.7% | -4.7 | .
O=[N+]([O-])c1ccccc1/C=N/OCc1ccccc1 | 0.8 | . | -1.4%[15.4 µM] | -1.8% | 2.9 | -4.0
CC(=O)Nc1ccc(Nc2ncnc3c2c(-c2ccccc2)cn3-c2ccc(C)c(Cl)c2)cc1 | -0.2 | ? | . | . | 5.6 | .
O=C(CNC(=O)C1COc2ccccc2O1)Nc1cc(Cl)ccc1Cl (stereo unspecified) | -0.3 | -5.7% | -49.4%[inhibitor] | 6.9% | -24.4 | .
Cc1nc(NCC2CCCO2)nc2c1C(=O)CC(C)C2 (stereo unspecified) | -0.2 | -7.5% | -38.5%[inhibitor] | 2.3% | 4.3 | 5.2
Cc1ccc(SCC(=O)OCC(=O)NCCc2ccccc2)cc1 | 0.2 | -1.0% | 3.5% | 0.3% | -4.8 | .
O=C(Cc1ccccc1)Nc1ccc(Br)c(Cl)c1 | -0.1 | -1.6% | 17.6% | 9.9% | 11.4 | 5.2
CCOc1ccc(N(CC)S(=O)(=O)c2cccc3nsnc23)cc1 | 1.5 | . | -1.5% | -7.5% | 28.3 | -7.9
O=C(CCN1C(=O)/C(=C\c2ccccc2F)SC1=S)N1CCCCC1 | 0.1 | 1.2% | -21.6% | 14.0% | 5.3 | 1.7

Next part:
mol | TRPML1 ag | ClpP mod | gsp ag | gsp antagonist | TRPML1 blocker | Menin MLL FP FL
COc1ccc(Nc2nccc3c2ncn3C)cc1 | 0.3 | . | -24.9%[15.4 µM] | -20.3% | 1.9 | .
COC(=O)c1sc(S(=O)(=O)Oc2ccccc2NC(C)=O)c(C(=O)OC)c1C | -0.8 | 0.6% | -32.0%[inhibitor] | 0.3% | -3.6 | .
COc1ccc(C2=NN(C(=O)CSc3ncccn3)C(c3ccc(OC)cc3)C2)cc1 (stereo unspecified) | 0.0 | -10.8% | -42.2%[inhibitor] | 0.2% | 6.9 | 6.6
COc1ccccc1CNC(=O)c1cc2c(=O)n(Cc3cccs3)ccc2nc1C | 2.6 | 4.1% | . | . | -21.8 | .
CN(c1ccccc1)S(=O)(=O)c1cccc(NC(=O)c2ccc(=O)[nH]n2)c1 | 1.6 | 25.1µM* | 0.0%[15.4 µM] | -14.2% | 19.1 | .
Cc1cccc(C(=O)Nc2nc3ccc(S(C)(=O)=O)cc3s2)c1 | 0.0 | 5.9% | 19.9% | -25.8% | -1.7 | 1.5

Results in gsp antagonist and ClpP mod, for some of the entries so far:
canonical_smiles	gsp antagonist	ClpP mod
COc1ccc(Nc2nccc3c2ncn3C)cc1	-20.3%	.
Cc1cccc(C(=O)Nc2nc3ccc(S(C)(=O)=O)cc3s2)c1	-25.8%	5.9%
